Source: PubChem BioAssay
Mtb growth = M. tuberculosis H37Rv growth inhibitors, H37Rv strain (AID 1626) | M. tuberculosis H37Rv growth inhibition; higher % means a stronger effect | one-dose inhibition, % at 10 µM; IC50 in µM for titrated hits | 220,000 tested, 0.95% active;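 active means confirmed in a dose series; inconclusive means inhibition above 80% but not taken into the dose series; inactive means below 80% or under 30% at every dose of the series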;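 further: bacteria incubated seven days before Alamar blue readout; 0% = bacteria only wells and 100% = bacteria with antibiotic wells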
RecA intein inh = blocks M. tuberculosis RecA intein splicing | inhibition, %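 (about 9 µM by stock and volumes)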 | AID 2221 | P9WHJ3 | 290,000 tested, 0.75% active | cell-free RecA intein splicing, fluorescence; in the data active means inhibition above about 30%; inconclusive means no clear call, values can overlap the other calls;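 further: 0% = vehicle wells and 100% = reference inhibitor control wells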
Target sequence (P9WHJ3 whole entry, looked up): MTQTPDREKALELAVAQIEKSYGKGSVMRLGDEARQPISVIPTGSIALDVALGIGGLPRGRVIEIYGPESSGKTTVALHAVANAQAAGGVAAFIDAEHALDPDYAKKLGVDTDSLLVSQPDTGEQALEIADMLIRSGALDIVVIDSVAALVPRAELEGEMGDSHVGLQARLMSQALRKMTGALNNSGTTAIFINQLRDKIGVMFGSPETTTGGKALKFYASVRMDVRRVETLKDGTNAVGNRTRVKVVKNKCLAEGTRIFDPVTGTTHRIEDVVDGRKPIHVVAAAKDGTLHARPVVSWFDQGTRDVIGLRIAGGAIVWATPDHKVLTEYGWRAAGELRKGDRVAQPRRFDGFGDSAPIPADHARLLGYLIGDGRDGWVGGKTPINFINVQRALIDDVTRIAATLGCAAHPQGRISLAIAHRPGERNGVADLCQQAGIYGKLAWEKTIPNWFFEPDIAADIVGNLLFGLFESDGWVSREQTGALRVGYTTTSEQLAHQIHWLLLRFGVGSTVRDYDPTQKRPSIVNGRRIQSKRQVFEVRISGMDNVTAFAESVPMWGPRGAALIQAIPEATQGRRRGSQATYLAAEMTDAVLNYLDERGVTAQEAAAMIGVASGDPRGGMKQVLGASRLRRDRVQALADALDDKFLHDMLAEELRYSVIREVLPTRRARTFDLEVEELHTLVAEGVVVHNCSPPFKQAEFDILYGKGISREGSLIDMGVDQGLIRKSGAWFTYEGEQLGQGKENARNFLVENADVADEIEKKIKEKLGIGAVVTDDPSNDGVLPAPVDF
YopH inh = YopH (Yersinia) phosphatase inhibition. fluorescence Ex485/Em525. inhibition, %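 (about 10 µM by stock and volumes)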. 140,000 tested, 0.16% active. AID 898;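 active means inhibition of 50% or more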;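 further: controls were vehicle for no effect and minimum signal wells for full effect; inactives centre near -20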
Mtb betalactam = beta-lactam sensitization of Mtb H37Rv | M. tuberculosis H37Rv growth with meropenem, percent inhibition; hits of this screen are not shown here | inhibition, % at 25 µM | 330,000 tested, 0.27% active;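 active means about 74% or more and at least 40 points above the plate without the antibiotic, then above 30% in a dose series; inconclusive means first-round hits that could not be retested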;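 further: growth measured after seven days incubation then overnight dye step; 0% = bacteria only wells and 100% = bacteria with antibiotic; twin plates without the antibiotic show which effects depend on it; some results filed as inactive read as strong as hits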
Arbovirus inh = arbovirus infection inhibition | arbovirus infection cell-based antiviral screen | inhibition, % at 10 µM | 200,000 tested, 0.37% active | AID 1251;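 active means inhibition from about 30%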;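 further: bluetongue infection of BSR cells; cell survival read as ATP light after 72 h; 0% = infected wells without compound and 100% = uninfected wells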
Arbovirus inh repeat = second read-out of Arbovirus inh, no call of its own (marks repeat the call); inhibition, %; measured here: 10K subset replicate screen; many hits read low in the repeat;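 first of two repeat runs on a subset; 0% = infected and 100% = uninfected wells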
* = called active by the depositor; ? = inconclusive; . = no result given. Some of the compounds tested; the hit share may differ from the screen's.

SMILES | Mtb growth | RecA intein inh | YopH inh | Mtb betalactam | Arbovirus inh | others
CCCc1ccc(OCC(O)CN2CCc3ccccc3C2)cc1 (centres undefined) | . | 2.0 | . | -2 | .
O=C(CCC1CCN(Cc2ccc(C#CCCO)cc2)CC1)NC1CC1 | . | -2.3 | . | 0 | .
CC(NCCc1ccc(O)cc1)C(O)c1ccc(O)cc1 (centres undefined) | -14% | -0.7 | -58 | -3 | -5
COc1cccc(NC(=O)COc2ccc(Br)c(C)c2)c1 | . | 7.4 | . | 36 | .
O=S(=O)(NCC1(N2CCOCC2)CCCCC1)c1ccc(F)c(F)c1F | . | 2.0 | . | -1 | .
COc1ccc(N2CCN(CCCNC(=O)CN3C(=O)COc4ccccc43)CC2)cc1 | . | -1.9 | . | -4 | .
COc1cc(C(=O)Oc2cc(C)cc(C)c2)cc(OC)c1OC | 17% | -1.2 | -29 | 97 | 1
O=C(NCC(=O)N(c1ccccc1F)C(C(=O)NC1CCCC1)c1ccncc1)c1ccco1 (centres undefined) | . | 1.3 | . | 4 | .
CSc1nnc(-c2ccccc2)c(=O)[nH]1 | -1% | 0.4 | -18 | 41 | 5
Cc1ccc2nc(-c3cccnc3)c(NC3CCCC3)n2c1 | 1% | -4.0 | 5 | 1 | 13
Cc1cc(C)cc(NC(=O)CN2CCN(C(=O)C3CCCO3)CC2)c1 (centres undefined) | . | -4.4 | . | -13 | .
Cc1ccccc1NC(=O)c1cccc(NC(=O)c2ccco2)c1 | . | 1.6 | . | 2 | .
COc1cc(/C=N/NC(=S)NC(C)C)ccc1OCC(=O)Nc1c(C)cc(C)cc1C | -1% | -0.6 | -21 | -8 | -1
CC1=NNC(=O)C1CCC(=O)N/N=C/C=C/c1ccccc1 (centres undefined) | ? | -1.0 | -30 | 0 | -3
C=CCn1c(SCC(=O)NCc2ccc3c(c2)OCO3)nnc1C1CCCCC1 | -9% | . | -30 | -17 | -6
Cc1onc(-c2ccccc2)c1C(=O)Nc1ccc(Cl)cn1 | 2% | 0.1 | . | -4 | -9
Oc1cccc(/C=N/Nc2cc(N3CCOCC3)nc(N3CCOCC3)n2)c1 | 2% | -8.3 | 2 | -2 | -2
O=C(NCCNC(=O)c1ccco1)c1ccc(F)cc1 | -3% | -0.8 | . | -2 | -3
CCOc1cccc(C(=O)NCc2ccccc2)c1 | -3% | -0.7 | . | 3 | 0
CC(C)CCNC(=O)CN(C(=O)Cn1nnc(-c2ccc(F)cc2)n1)C1CCCC1 | 8% | 5.0 | -42 | -7 | -2

Continued; the last 6 above are carried over.
SMILES | Mtb growth | RecA intein inh | YopH inh | Mtb betalactam | Arbovirus inh | others
C=CCn1c(SCC(=O)NCc2ccc3c(c2)OCO3)nnc1C1CCCCC1 | -9% | . | -30 | -17 | -6
Cc1onc(-c2ccccc2)c1C(=O)Nc1ccc(Cl)cn1 | 2% | 0.1 | . | -4 | -9
Oc1cccc(/C=N/Nc2cc(N3CCOCC3)nc(N3CCOCC3)n2)c1 | 2% | -8.3 | 2 | -2 | -2
O=C(NCCNC(=O)c1ccco1)c1ccc(F)cc1 | -3% | -0.8 | . | -2 | -3
CCOc1cccc(C(=O)NCc2ccccc2)c1 | -3% | -0.7 | . | 3 | 0
CC(C)CCNC(=O)CN(C(=O)Cn1nnc(-c2ccc(F)cc2)n1)C1CCCC1 | 8% | 5.0 | -42 | -7 | -2
CCCCOC(=O)c1cc(Cl)c(O)c(OC)c1 | 0% | -0.4 | . | 0 | .
Cc1ccc2cc(C)c(N3CCN(c4ccccn4)CC3)nc2c1 | 11% | 11 | -22 | 98 | 6
O=C(Nc1ccccc1)Nc1sccc1-c1nc2ccccc2s1 | 12% | -2.5 | . | -2 | .
CC1CCCCN1CCCNC(=O)Cn1ncc2c([nH]c3ccccc32)c1=O (centres undefined) | . | -1.6 | . | -6 | .
Cc1nccn1-c1ncnc2sc3c(c12)CCCC3 | -2% | -0.8 | -35 | 2 | 3 | Arbovirus inh repeat=1
Cc1cccn2cc(CSc3ccccc3N)nc12 | 2% | -0.9 | -18 | 17 | 1
O=C1c2ccccc2C(=O)N1CC1c2ccccc2CCN1S(=O)(=O)c1ccccc1 (centres undefined) | 1% | 0.3 | -46 | -3 | 6
COc1ccc(N2C(=O)/C(=C/c3cccs3)C(=O)NC2=S)cc1 | -5% | 3.1 | . | 0 | .
C#CCSc1nnnn1-c1cccc(Cl)c1 | 4% | -0.2 | . | -3 | .
COc1ccc(Cl)cc1Nc1nnc(-c2ccncc2)s1 | . | -1.7 | . | -7 | .

Quoted at random: two compounds from above
SMILES | Mtb growth | RecA intein inh | YopH inh | Mtb betalactam | Arbovirus inh | others
COc1ccc(Cl)cc1Nc1nnc(-c2ccncc2)s1 | . | -1.7 | . | -7 | .
COc1ccc(N2C(=O)/C(=C/c3cccs3)C(=O)NC2=S)cc1 | -5% | 3.1 | . | 0 | .

Going on with the list:
SMILES | Mtb growth | RecA intein inh | YopH inh | Mtb betalactam | Arbovirus inh | others
Fc1ccc(CNC(=S)Nc2cccc(C(F)(F)F)c2)cc1 | 15% | 1.9 | -28 | 59 | -20
COc1ccc2c(c1)[nH]c1c(=O)n(Cc3ccccn3)cnc12 | -4% | 0.5 | -20 | 0 | -2
CCC(=O)Oc1ccc(C(=O)Nc2cccc(C(=O)NCC(C)C)c2)cc1 | 2% | 5.9 | . | 5 | 2
COc1ccc([N+](=O)[O-])cc1NC(=O)CSc1ccccc1 | -2% | 1.7 | -28 | 1 | -1
O=C(c1ccccc1)N(Cc1cccnc1)C1(C(=O)Nc2ccccc2)CCCCC1 | 4% | -1.5 | -2 | 1 | -8
O=C(Nc1cccc(C(=O)Nc2ccccc2C(=O)O)c1)c1cccc(Cl)c1 | . | 1.5 | . | -8 | .
COc1ccc(-c2csc(N3CCN(S(=O)(=O)c4ccc5c(c4)NC(=O)CO5)CC3)n2)cc1 | . | 7.2 | . | -2 | .
CC(C)(C)c1ccc(C(=O)N2CCC(C(=O)NC3CC3)CC2)cc1 | . | 2.3 | . | 7 | .
FC(F)(F)c1ccccc1NC(=S)N1CCN(c2ccccn2)CC1 | -4% | 3.2 | . | 1 | 10
CC(=O)c1c(C)nn(C(=O)c2cccs2)c1C | -7% | 7.9 | -49 | -5 | 4 | Arbovirus inh repeat=2
CC(C)c1ccc(/C=N/Nc2cc(N3CCOCC3)nc(N3CCOCC3)n2)cc1 | 4% | . | -33 | 7 | -11
Cc1cc(C)n(S(=O)(=O)c2cc(Cl)ccc2Cl)n1 | -2% | 2.2 | 2 | 0 | -2
Cc1ccc(N2C(=O)c3ccc(C(=O)Nc4cccnc4)cc3C2=O)c(C)c1 | -18% | 0.0 | -11 | -5 | -2
C(=N\Nc1nc2ccccc2[nH]1)/c1cccc2nccnc12 | -1% | 16 | . | 45 | .
NC(=O)c1cc([N+](=O)[O-])cc2c1C=Cc1ccccc1O2 | -5% | -1.4 | . | -3 | 8
Cc1c(Cl)ccc2c1NC(=O)[C@]21[C@@H]2C(=O)N(Cc3ccccc3)C(=O)[C@@H]2[C@@H]2CCCN21 | 9% | . | -35 | 11 | -32
CC(C)N(C)NC(=S)Nc1ccccc1 | 24% | -1.4 | -23 | -3 | -3
C=C(C)C1CC=C(C)/C(=N/NC(=O)COc2cccc(C)c2)C1 (centres undefined) | -6% | -5.3 | -27 | 2 | -1
O=C(NC1CCCCCC1)C1CCN(C(=O)c2ccc(Br)cc2)CC1 | . | -1.0 | . | -7 | .
CC(C)CN(C(=O)COC(=O)CCc1c[nH]c2ccccc12)C1CCS(=O)(=O)C1 (centres undefined) | 12% | 0.5 | -30 | 17 | 1

The last three compounds of the section before lead into the next:
SMILES | Mtb growth | RecA intein inh | YopH inh | Mtb betalactam | Arbovirus inh | others
C=C(C)C1CC=C(C)/C(=N/NC(=O)COc2cccc(C)c2)C1 (centres undefined) | -6% | -5.3 | -27 | 2 | -1
O=C(NC1CCCCCC1)C1CCN(C(=O)c2ccc(Br)cc2)CC1 | . | -1.0 | . | -7 | .
CC(C)CN(C(=O)COC(=O)CCc1c[nH]c2ccccc12)C1CCS(=O)(=O)C1 (centres undefined) | 12% | 0.5 | -30 | 17 | 1
COc1cc2c(cc1OC)CN(CC(=O)Nc1ccccc1C#N)CC2 | 5% | -0.3 | -14 | -3 | 10
CC(C)N1CC=C2C(C#N)=C(N)C(C#N)(C#N)C(c3ccccc3)C2C1 (centres undefined) | -2% | -38 | -5 | -5 | 3
COc1cc(C(=O)NCC(c2cccs2)N2CCc3ccccc32)cc(OC)c1OC (centres undefined) | . | -0.1 | . | 0 | .
CCc1c(C)c(C#N)c2nc3ccccc3n2c1Nc1c(C)n(C)n(-c2ccccc2)c1=O | -8% | -4.5 | -27 | 2 | -1
CCN1CCN(C(=S)NC(=O)/C=C/c2cccs2)CC1 | 10% | -2.0 | . | -4 | 5
Cc1nn2cc(-c3ccc(Cl)cc3)cnc2c1Br | -8% | 2.7 | . | -3 | 3
O=C(NC1CCC(O)CC1)c1cccnc1Sc1ccccc1Cl (centres undefined) | . | 0.3 | . | 1 | .
COc1ccc(C(C(=O)NC2CCCC2)N(C(=O)c2ccco2)c2ccc(OC)c(OC)c2)cc1 (centres undefined) | 5% | 2.2 | -7 | -8 | -6
COC(=O)c1ccc(C23CC4(C2)[C@H](CN(CC2CCCCC2)[C@@H]4c2ccccc2)C3c2ccc(Cl)nc2)cc1 (some centres undefined) | -2% | 8.0 | . | 72 | .
Cc1ccc2oc(=O)c3cc(C(=O)NCCCN4C(C)CCCC4C)sc3c2c1 (centres undefined) | . | -2.9 | . | -2 | .
COc1ccc(NS(=O)(=O)c2ccc3ccccc3c2)c2ncccc12 | . | -21 | . | 3 | .
COc1cc(NC(=S)NN2CCN(C)CC2)cc(OC)c1 | -10% | 0.3 | -4 | 10 | 3
CC(OC(=O)C1CCCC1)C(=O)Nc1ccc(S(N)(=O)=O)cc1 (centres undefined) | . | -2.2 | . | 0 | .
CN(Cc1ccccc1)C(=O)CN(c1ccccc1Cl)S(C)(=O)=O | . | -0.6 | . | -2 | .
O=C(NCCO)c1c(O)c2cccc3c2n(c1=O)CC3 | -8% | 1.8 | -3 | -16 | 2
Cc1cc(C)c2cc(C(c3nnnn3C3CCCC3)N3CCOCC3)c(=O)[nH]c2c1 (centres undefined) | -3% | -2.5 | -52 | 0 | 1
CCOC(=O)CC1C(=O)NCCN1c1nc2ccc(C)cn2c(=O)c1/C=C1\SC(=S)N(C(C)CC)C1=O (centres undefined) | 6% | 0.2 | . | -6 | .
O=c1c2ccccc2ncn1Cc1nc2ccccc2s1 | 0% | 0.8 | -33 | -4 | -6
COCCn1cc(C(=O)N2CCCC(C)C2)c2c3ccccc3n(C)c2c1=O (centres undefined) | -2% | 2.3 | -38 | -1 | 3
COc1cc(C(=S)N(C)C)ccc1O | 2% | -4.7 | 16 | 10 | 8
O=C(CSc1nc2[nH]ncc2c(=O)n1-c1ccc(Cl)c(Cl)c1)NCc1ccccc1Cl | 62% | 1.2 | . | 75 | -18
O=C(NCc1ccccc1)C1CCC(=O)N(CCN2CCOCC2)C1 (centres undefined) | . | -0.4 | . | -1 | .
Cc1ccc(CNC(=O)Cc2cn(C)c3ccccc23)cc1 | . | -0.5 | . | 3 | .
CCN(CC)C(=O)Cn1cc(S(=O)(=O)CC(=O)NCc2ccc3c(c2)OCO3)c2ccccc21 | -4% | -3.2 | . | -11 | 0
CC(=NCCc1c[nH]c2ccccc12)c1c(O)n(Cc2ccccc2)c(=O)[nH]c1=O | 20% | -1.7 | . | 2 | .
CCCCCCCOc1ccc(OC(=O)c2ccncc2)cc1 | ? | 5.3 | -19 | 98 | -15
CC(C)(O)C#CC#CCN1CCOCC1 | 4% | -6.1 | -38 | -6 | 0
COCCCn1c(SCC(=O)N2CCCC(C)C2)nnc1-c1ccco1 (centres undefined) | -5% | -2.9 | -24 | -15 | -3
O=C(O)c1cc([N+](=O)[O-])ccc1C(=O)Nc1cccc([N+](=O)[O-])c1 | . | -0.5 | . | -3 | .
O=C(Cn1nc(Cc2cccnc2)c2ccccc2c1=O)NCCCN1CCCC1=O | 0% | -2.7 | -42 | -5 | 7 | Arbovirus inh repeat=7
O=C(c1ccc2c(c1)OCO2)N1CCc2ccccc2C1 | -1% | 1.4 | -39 | -7 | -7
CCOC(=O)c1sc(NC(=O)C2CCCCC2)nc1C | . | 0.8 | . | 3 | .
COc1cc(OC)cc(C(=O)Nn2cc(C(=O)Nc3ccccc3F)c3ccccc3c2=O)c1 | 6% | -1.6 | -4 | 5 | -18
COc1ccc(S(=O)(=O)NCCOc2cccc3cccnc23)cc1OC | 2% | -1.6 | . | . | 25
O=C1CSC(c2cccc([N+](=O)[O-])c2)N1C1CC2CCC1C2 (centres undefined) | -3% | 1.5 | . | -3 | .
